# TRPML1 blocker – qHTS for Inhibitors of the Human Mucolipin Transient Receptor Potential 1 (TRPML1). Mucolipin-1 (Homo sapiens), Q9GZU1. TRPML1-inducible cells, Ca2+ dye fluorescence, FDSS; stronger effect = lower value; inhibition of EC80 agonist-evoked calcium signal. activity change, negative = inhibition, % (no concentration beside the values). 390,000 tested, 0.02% active; in the data active means activity change below about -50%; inconclusive means about -30% to -50%; inactive means above about -30%;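 further: stimulus is agonist 54-4 at its EC80 concentration; on the % scale 0 is the no-effect control and ±100 the full control effect; compound concentration not given in the record; the text of the record puts the active cut at -80%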
# Target sequence (Q9GZU1 whole entry, looked up): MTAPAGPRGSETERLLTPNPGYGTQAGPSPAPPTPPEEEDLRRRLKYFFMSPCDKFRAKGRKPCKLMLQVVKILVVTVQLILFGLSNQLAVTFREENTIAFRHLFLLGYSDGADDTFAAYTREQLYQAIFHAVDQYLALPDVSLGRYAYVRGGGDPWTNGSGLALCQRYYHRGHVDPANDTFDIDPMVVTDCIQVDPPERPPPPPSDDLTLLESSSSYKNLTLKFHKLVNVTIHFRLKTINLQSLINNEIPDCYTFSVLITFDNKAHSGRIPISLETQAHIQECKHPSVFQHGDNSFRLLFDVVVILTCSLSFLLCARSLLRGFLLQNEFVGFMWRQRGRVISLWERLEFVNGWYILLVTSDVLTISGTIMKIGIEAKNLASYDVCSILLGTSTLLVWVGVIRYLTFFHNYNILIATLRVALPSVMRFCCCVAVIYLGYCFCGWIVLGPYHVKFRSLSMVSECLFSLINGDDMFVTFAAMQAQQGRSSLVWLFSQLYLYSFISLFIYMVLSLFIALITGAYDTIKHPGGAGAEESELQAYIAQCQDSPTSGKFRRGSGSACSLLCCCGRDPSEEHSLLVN
#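 Calcium fluorescence in TRPML1-DL cells induced overnight with Tet: a 110 s read after compound pin addition, then a 110 s antagonist read after challenge with 54-4 at 4 uM final (EC80).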
# ClpP mod – qHTS Assay for Activators of ClpP | ATP-dependent Clp protease proteolytic subunit (Bacillus subtilis (strain 168)), P80244 | purified B. subtilis ClpP, FRET peptide cleavage, 20 min | Potency, µM (series often up to 57.5 µM), for the others: at the highest dose activity change, negative = active | 340,000 tested, 1.9% active | AID 651965, 2013; active = well fitted falling curve with a large enough effect; inconclusive = small, poorly fitted or top-dose-only effect; inactive = no such curve, though single readings can be large or run the other way; further: potency means the concentration at half of the fitted maximal effect; the source files actives as falling curves though it sought activators and does not explain the sign; nearly all actives have a fitted effect of over 65% in size; many hits overshoot -100%
# Target sequence (P80244 whole entry, looked up): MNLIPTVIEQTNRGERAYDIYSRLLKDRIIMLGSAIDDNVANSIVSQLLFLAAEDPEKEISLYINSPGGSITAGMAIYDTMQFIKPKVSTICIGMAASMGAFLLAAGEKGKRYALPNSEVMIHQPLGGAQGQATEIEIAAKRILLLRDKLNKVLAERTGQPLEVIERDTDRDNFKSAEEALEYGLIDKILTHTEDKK
#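 Buffer: 100 mM Tris/HCl pH8, 100 mM KCl, 0.05% low protease BSA, 2.5% glycerol, 0.01% Tween-20. ClpP 10 microg/mL final; 20 min RT; delta FRET normalized to ADEP and DMSO controls.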
# * marks the source's active call; other numbers are inactive results; ? = inconclusive. This is a subset, so the mix of outcomes need not match the whole.
SMILES,TRPML1 blocker,ClpP mod
Cc1ccc(C)n1-c1nnc(N2CCCC(C(=O)NCc3ccc(F)cc3)C2)s1 (stereo not drawn),-2,0.0%
CCc1ccc(NC(=O)Cn2c(=O)oc3cc(S(=O)(=O)NCc4ccccc4)ccc32)cc1,-24,-3.1%
COc1cccc(CNc2ncnc3onc(-c4ccc(F)cc4)c23)c1,61,-1.4%
Cc1nc2nc(SCC(=O)NCCc3ccc(Cl)cc3)nn2c(C)c1Cc1c(F)cccc1Cl,25,-0.9%
COc1ccc(CCNC(=O)C(C)n2c(=O)cc(C(F)(F)F)c3c(C)nn(C)c32)cc1OC (stereo not drawn),29,-6.7%
COc1ccc(C(=O)NCc2ccc3c(c2)CCN3C(=O)c2ccc(F)cc2)cc1,-4,-1.4%
Cc1oc(-c2ccc(C(=O)NCCC(C)C)cc2)nc1CN1CCc2ccccc21,33,7.1%
Cc1ccccc1OCCn1c(-c2ccc(Cl)cc2)nc2ccccc2c1=O,-4,-0.6%
COc1ccc(Cn2c(=O)[nH]c3cc(C(=O)N4CCN(c5cc(C)ccc5C)CC4)ccc3c2=O)cc1,-7,-2.4%
O=C(NCc1ccccc1Cl)c1nnc(Cc2ccc(Cl)cc2)o1,-1,-1.9%
CCCCC(=O)Nc1ccc2nc(SCC(=O)N3CCOCC3)sc2c1,5,-0.4%
CCOc1ccc(-c2csc(-c3c(N)c(C(=O)c4ccc5c(c4)OCO5)n4ccccc34)n2)cc1,-17,1.8%
CCCNC(=O)C1(C)CCCN(C(=O)c2cc(F)ccc2C)C1 (stereo not drawn),12,0.8%
CCc1cccc(C)c1NC(=O)c1nc2ccccc2nc1N1CCCCC1,43,3.1%
CCN(CCCNC(=O)c1cc2cc3ccc(OC)cc3nc2s1)c1cccc(C)c1,-19,2.8%
CCCn1c2ccccc2c2cnn(CC(=O)NCC3CCN(Cc4ccc(C)cc4)CC3)c(=O)c21,-5,?
Clc1ccc(-c2nnn3c2nc(NCc2ccc4c(c2)OCO4)c2ccccc23)cc1,-4,-10%
CCC(=O)N1CCc2cc(Br)cc(S(=O)(=O)N3CCCC(C(=O)Nc4cccc(Cl)c4C)C3)c21 (stereo not drawn),-5,2.2%
COc1cccc(-c2[nH]c3c(c2-c2c(-n4cccc4)n(C)c(=O)[nH]c2=O)c(=O)[nH]c(=O)n3C)c1,-20,-0.2%
CCCNC(=O)CCNS(=O)(=O)c1ccc2c(c1)c(=O)n(C)c(=O)n2C,2,-6.3%
Cc1ccc(C(C)C)c(OCc2ccc(C(=O)Nc3ccc(S(N)(=O)=O)cc3C)o2)c1,26,-12%
CCCNC(=O)C1CCC(Cn2c(=O)c3sccc3n(CC(=O)N3CCCC(C)C3)c2=O)CC1 (stereo not drawn),6,-1.0%
COc1ccccc1CCNC(=O)Cc1c(C)c2cc3c(C(C)(C)C)coc3c(C)c2oc1=O,6,-13%
COc1cccc(CNC(=O)C(=O)NCC(c2ccco2)S(=O)(=O)c2cccs2)c1 (stereo not drawn),3,2.0%
CCc1ccc2oc(C(=O)Nc3sc4c(c3C(=O)NC)CCCC4)cc(=O)c2c1,-10,2.1%
COc1cccc(NC(=O)CN2C(=O)c3cccc4cccc2c34)c1,-11,-6.1%
COc1ccccc1-c1nc(S(=O)(=O)c2ccc(Cl)cc2)c(N2CCCCCC2)o1,13,?
COc1ccc(NC(=O)C2Cc3c(-c4cccc(C(C)=O)c4)ccnc3O2)cn1 (stereo not drawn),37,-2.0%
CCN(CC)CCCNc1oc(/C=C/c2ccc(OC)c(OC)c2)nc1C#N,32,4.4%
CCOC(=O)c1ccccc1NC(=O)CSc1nnc(CC)n2c1cc1occc12,21,13%
CC(O)(c1cccc(F)c1)c1nc(-c2ccc3ccccc3c2)cs1 (stereo not drawn),-13,-11%
COc1cccc(NC(=O)C2CCCN(c3ncnc4onc(C)c34)C2)c1 (stereo not drawn),-3,-1.1%
CC(Oc1ccccc1F)C(=O)N1CCC(c2nc3ccccc3o2)CC1 (stereo not drawn),-12,-1.0%
Cc1ccc(C)c(N2CCN(C3=C(c4ccccc4)C(=O)c4ccccc43)CC2)c1,-30,-0.8%
Cc1ccc(S(=O)(=O)NCCc2nnc3ccc(SCC(=O)Nc4ccc(F)cc4F)nn23)cc1,14,-3.5%
CCOc1ccccc1C(=O)Nc1cccc2ccc(C)nc12,11,32µM*
O=C(NCc1ccccc1Br)c1ccc(-n2cnc3cccnc32)cc1,3,0.3%
Cc1ccc(F)cc1NC(=O)CCc1c(C)nn(-c2ccc(N3CCCC3)nn2)c1C,4,0.2%
COc1cccc(C(=O)Nc2cccc(OCc3cc(=O)n4c5c(sc4n3)CCCC5)c2)c1,-5,-18%
COc1ccc(-c2nc(SCC(=O)N3CCC(C)CC3)n[nH]2)cc1,8,0.1%

# Sorted by formula weight (rising): 3 of the compounds above
SMILES,TRPML1 blocker,ClpP mod
CCOc1ccccc1C(=O)Nc1cccc2ccc(C)nc12,11,32µM*
COc1ccccc1CCNC(=O)Cc1c(C)c2cc3c(C(C)(C)C)coc3c(C)c2oc1=O,6,-13%
Cc1ccc(S(=O)(=O)NCCc2nnc3ccc(SCC(=O)Nc4ccc(F)cc4F)nn23)cc1,14,-3.5%

# Going on with the list:
SMILES,TRPML1 blocker,ClpP mod
COc1ccc(NC(=O)Cn2ncc3c([nH]c4ccccc43)c2=O)cc1Cl,-7,-1.3%
CC(=O)Nc1ccc(NC(=O)c2c(-c3ccccc3)noc2C)cc1,34,-0.4%
CCc1ccc(NC(=O)CSc2c(C)cnc3c2c(=O)n(C)c(=O)n3C)cc1,2,-0.2%
Cc1cccc(N2CCN(C(=O)C3CCN(C(=O)c4cc5sccc5n4C)CC3)CC2C)c1 (stereo not drawn),-9,0.8%
Cn1c(SCC(=O)N2CCCc3ccccc32)ncc(C(=O)Nc2ccc(F)cc2)c1=O,35,-3.0%
Cc1ccccc1NC(=O)C1CCN(S(=O)(=O)c2ccccc2)CC1,-11,0.1%
CCOc1ccc(S(=O)(=O)Nc2cccc(OC)c2)c2cccnc12,-11,-0.5%
COc1ccc(Cl)cc1NC(=O)Cn1ccn(Cc2ccc(C)cc2)c(=O)c1=O,-12,66%
CCOc1ccc(NC(=O)N2CCN(C(=O)c3nsc4ccccc34)CC2)cc1,-15,0.3%
COc1ccc2c(CNCC(C)c3ccccc3)c(C(=O)O)n(Cc3ccc(F)cc3Cl)c2c1 (stereo not drawn),2,-1.1%
Cc1ccccc1CN1C(=O)c2ccccc2S(=O)c2ccc(C(=O)NCc3ccc(Cl)cc3)cc21 (stereo not drawn),-29,-2.1%
CN(Cc1ccccc1)C(=O)c1ccc2c(c1)N(Cc1ccccc1F)C(=O)c1ccccc1S2(=O)=O,1,-3.6%
Cc1cc(Br)cn2c(Cc3ccccc3)c(-c3cccc(Br)c3)nc12,-14,-4.4%
Cc1ccc(NC(=O)Nc2ccc3c(c2)N(C)C(=O)c2ccccc2S3)c(C)c1,1,2.5%
CCOC(=O)c1c(N)n(-c2ccc(CC)cc2)c2nc3ccccc3nc12,15,4.1%
Cc1ccc(CCNC(=O)c2cc(Nc3ccc(C)c(C)c3)nc3ccccc23)cc1,-1,24%
Cc1ccccc1NC(=O)c1c(NC(=O)c2ccco2)sc2c1CCC(C(C)(C)C)C2 (stereo not drawn),-1,-4.9%
CC1CCc2c(sc3nnn(Cc4ccccc4Cl)c(=O)c23)C1 (stereo not drawn),-5,-0.9%
COc1ccc(S(=O)(=O)Nc2cc(-c3cn4cccc(C)c4n3)ccc2C)cc1C,51,3.6%
O=c1c(N2CCc3ccccc3C2)csc2ccc(F)cc12,1,-13%
CCc1ccc(NC(=O)Cn2c(=O)n(CCCC(=O)NCCc3ccc(OC)c(OC)c3)c(=O)c3ccccc32)cc1,-4,-1.6%
CCc1ccc(-c2nc3c(c(SCc4ccc(F)cc4)n2)Cc2c(CO)cnc(C)c2O3)cc1,-3,0.9%
OC[C@H]1O[C@@H](c2nc(-c3ccc(CN4CCOCC4)cc3)no2)[C@H](O)[C@@H](O)[C@H]1O,-4,1.7%
CCc1ccc(-n2c(CCC(=O)O)ccc2-c2cccs2)cc1,11,-15%
COc1ccccc1Cc1nc2ccccc2nc1SCC(=O)NCCc1ccccc1,29,0.7%
CCN(CC)CCCNC(=O)c1c(C)oc2ncn(CC(C)C)c(=O)c12,-20,-3.7%
Cc1c2cnn(-c3ccccc3)c(=O)c2c(C)n1C(C)C(=O)NCc1cccc(Br)c1 (stereo not drawn),23,0.3%
CC(=O)C1=C(c2ccc(Cl)c(Cl)c2)N(C(C)=O)n2c(nnc2C2CCCCC2)S1,-9,-1.0%
CC1CCN(c2oc(-c3ccc(COc4ccc(Cl)cc4)o3)nc2C#N)CC1,14,25µM*
Cc1ccccc1NC(=O)CSc1ncc2c(n1)-c1ccccc1N(C)S2(=O)=O,-7,4.1%
O=C(NCCc1ccc(Cl)cc1)c1ccc2nc(CCc3ccccc3)oc2c1,56,-2.0%
O=C(CSc1nc2ccccc2nc1Cc1ccccc1)N1CCCc2ccccc21,66,-4.6%
CCC(Sc1nc2ccncc2[nH]1)C(=O)Nc1ccc(F)cc1 (stereo not drawn),-9,-2.9%
Cc1ccccc1OCC(=O)Nc1ccc2nc(SCC(=O)N(C)c3ccccc3)sc2c1,30,-4.0%
CCc1nc2ccc(C(=O)N3CCN(C(=O)c4ccco4)CC3)cn2c1N(C)Cc1nccn1C,?,-2.1%
Cc1ccc(NC(=O)Cn2c(-c3nonc3N)nc3ccccc32)cc1Cl,-8,0.7%
COc1ccc2c(c1)CC(C(=O)Nc1cccc(C)c1C)CO2 (stereo not drawn),11,-7.6%
CCN(C(=O)Cn1cnc2c1c(=O)n(C)c(=O)n2C)c1ccccc1C,1,-2.4%
COc1ccc(-n2c(-c3ccco3)nc3c(cnn3-c3ccccc3Cl)c2=O)cc1,-5,-0.7%
COCCNC(=O)C1CCN(C(=O)c2cc3sccc3n2Cc2ccc(Cl)cc2)CC1,18,-0.1%
Cc1ccccc1CNC(=O)C(C)n1nc(C)n2c(cc3occc32)c1=O (stereo not drawn),-3,-9.4%
CCOc1ccc(CCNC(=O)c2cnc3sc(N4CCCCCC4)nn3c2=O)cc1,3,?
CCc1ccc(NC(=O)Cn2c(=O)n(CCCCC(=O)NCc3ccccc3Cl)c(=O)c3ccccc32)cc1,-2,-4.3%
CC(C)Cn1cc(-c2cccc3nccn23)cn1,-6,4.2%
COc1ccccc1NC(=O)Cn1c(=O)n(Cc2cccs2)c(=O)c2cccnc21,5,?
CCCCCSc1nnc(-c2ccc(Br)cc2)o1,1,-2.0%
CCOC(=O)N1CCC2(CC1)OC(=O)C(C)=C2C(=O)NCc1cccc(OC)c1,-18,1.0%
CCOc1ccc(OCc2ccc(C(=O)Nc3cc(OC)c(OC)c(OC)c3)o2)cc1,11,1.0%
Cc1ccc(C)c(Cn2nnc(C(=O)NCc3ccccc3)c2N)c1,-5,0.6%
COc1ccc(OC)c2sc(NC(=O)c3ccc(S(=O)(=O)N4CCCC4)cc3)nc12,-5,-5.5%
O=C(NCc1cccnc1)c1nn(-c2ccc(F)cc2)nc1CO,-20,25µM*
CC(C)Oc1ccc(CNC(=O)c2ccc(CS(=O)c3cccc(Cl)c3)o2)cc1 (stereo not drawn),-4,0.9%
O=C(CCC1CCCC1)N1CCc2c([nH]c3ccccc23)C1c1ccc(F)cc1 (stereo not drawn),13,-5.7%
Cc1ccc(C(C)C)c(OCC(=O)Nc2ccc(C(=O)OC3CCCCC3)cc2)c1,2,-1.5%
CC(=O)c1cccc(NC(=O)C2CCN(C(=O)c3cnn(-c4ccccc4)c3-n3cccc3)CC2)c1,11,-1.0%
CCOC(=O)c1noc2ncn(Cc3ccc([N+](=O)[O-])cc3)c(=O)c12,-1,-2.0%
Cc1ccc2nc(N3CCC(C(=O)NCc4ccc(F)cc4)CC3)[nH]c2c1,-19,-2.3%
CN(C)c1ccc(CNC(=O)CCC(=O)N2Cc3ccccc3Oc3ncccc32)cc1,-17,-1.9%
Cc1nc(-n2nc(C)c(CCC(C)C)c2C)sc1C(=O)Nc1cccc(Cl)c1,3,-8.1%
COc1ccc(CCNC(=O)Cn2c(=O)c3cccn3c3ccccc32)cc1OC,24,-0.7%

# An excerpt from above in order of the TRPML1 blocker value, descending.
Molecule,TRPML1 blocker
CC(=O)c1cccc(NC(=O)C2CCN(C(=O)c3cnn(-c4ccccc4)c3-n3cccc3)CC2)c1,11
CC(C)Cn1cc(-c2cccc3nccn23)cn1,-6
CN(C)c1ccc(CNC(=O)CCC(=O)N2Cc3ccccc3Oc3ncccc32)cc1,-17

# Profiles, quoted from the list. Values in the order: TRPML1 blocker	ClpP mod
# `CN(C)c1ccc(CNC(=O)CCC(=O)N2Cc3ccccc3Oc3ncccc32)cc1` is listed as -17	-1.9%
# `Cc1ccc2nc(N3CCC(C(=O)NCc4ccc(F)cc4)CC3)[nH]c2c1` is listed as -19	-2.3%
# `CCOC(=O)N1CCC2(CC1)OC(=O)C(C)=C2C(=O)NCc1cccc(OC)c1` is listed as -18	1.0%
# `CCOc1ccc(CCNC(=O)c2cnc3sc(N4CCCCCC4)nn3c2=O)cc1` is listed as 3	?
# `CC(=O)c1cccc(NC(=O)C2CCN(C(=O)c3cnn(-c4ccccc4)c3-n3cccc3)CC2)c1` is listed as 11	-1.0%

# Assay outcomes: PubChem, National Center for Advancing Translational Sciences (NCATS)
